High-throughput results from PubChem.
D2 potentiator: Beta-Arrestin HTS for Positive Allosteric Modulators of the Human D2 Dopamine Receptor: Potentiators; D(2) dopamine receptor (Homo sapiens), P14416; DiscoveRx D2 beta-arrestin cells, luminescence, 90 min; 100% = 57 uM dopamine signal; potentiation, % (no concentration beside the values); 360,000 compounds, 0.23% hits; active = potentiation of 50% or more; inconclusive = 30% to 50%; inactive = 30% or less;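 also: compound concentration not given in the record; tested on top of an EC20 dose of dopamine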
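PathHunter beta-arrestin assay in DiscoveRx D2 cells. Compounds were added with an EC20 of dopamine (50 nM final) for 90 min at 37 deg C. Luminescence was read 1 h after detection reagent, with 57 uM dopamine as the EC100 control.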
D2 agonist: Beta-Arrestin HTS for Positive Allosteric Modulators of the Human D2 Dopamine Receptor: Agonists | 360,000 compounds, 0.084% hits | DiscoveRx PathHunter D2 beta-arrestin, luminescence, 90 min; 100% = 57 uM dopamine signal | activation, % (no concentration beside the values); in the data active = activation above about 40%; inconclusive = about 15% to 40%; inactive = below about 15%; also: compound concentration not given in the record; the text of the record calls up to 30% inactive
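DiscoveRx PathHunter D2 beta-arrestin cells (2,100/well) attached overnight, then compound-stimulated 90 min at 37 C in HBSS/10 mM HEPES/0.1% Tween-20 buffer; beta-galactosidase complementation read by luminescence after 1 h at ambient temperature. Dopamine 57 uM final (EC100) as control.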
gsp agonist: qHTS for Agonist of gsp, the Etiologic Mutation Responsible for Fibrous Dysplasia/McCune-Albright Syndrome: qHTS | gsp mutant cells, cAMP HTRF, 30 min; control for the full effect not named in the record | Potency, µM (doses to about 76.9 µM), for the others: top-dose activation (cAMP increase), usual class: activators | 340,000 compounds, 0.13% hits | AID 624287, 2012; active = well fitted activation curve with a large enough effect; inconclusive = small, poorly fitted or top-dose-only effect, or another doubt; inactive = no such curve, though single readings can be large or run the other way; cell line not stated here;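 also: phosphodiesterase inhibitor Ro 20-1724 added with compounds to block cAMP breakdown; potency is read from the fitted curve at half-maximal effect; nearly all actives have a fitted effect of over 60% in size; about a fifth of the inactives were tested at one dose only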
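Cells stably selected in G418 were plated at 2000/well, grown 16-24 hr, then given compounds in DMSO with the PDE inhibitor […] (300 uM solution added) for 30 min at 37C; cAMP was read by HTRF.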
CtBP-E1A blk: qHTS Assay for Inhibitors of the CtBP/E1A Interaction. CtBP / adenovirus E1A interaction (AlphaScreen). AlphaScreen GST-E1A/His-CtBP binding, 1536-well; active compounds read low; control for the full effect not named in the record. activity change, % (concentration not given with the values). 340,000 compounds, 0.49% hits. AID 651724, 2012; in the data active means activity change below about -65%; inconclusive means about -30% to -65%; inactive means above about -30%; also: % is scaled to controls: 0 for no effect and ±100 for the full control effect
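Homogeneous bead-based format: GST-tagged E1A captured on glutathione donor beads, His-tagged CtBP on nickel acceptor beads; compounds precede bead addition by 2 h at 37 °C.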
gsp antagonist: qHTS for Antagonists of gsp, the Etiologic Mutation Responsible for Fibrous Dysplasia/McCune-Albright Syndrome: qHTS; Potency, µM (titrated, usually from 76.9 µM), for the others: at the top dose activity change, negative = inhibition, actives largely listed as inhibitors; 340,000 compounds, 0.4% hits; gsp-mutant cells, cAMP HTRF, 30 min; control for the full effect not named in the record; AID 624288, 2012; active = falling curve of any shape with a large fitted effect; inconclusive = falling curve, mostly with a smaller effect; inactive = flat or rising curve; cell line not stated here;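 also: intracellular cAMP measured with PDE inhibitor Ro 20-1724 present during compound exposure; potency is read from the fitted curve at half-maximal effect; % is scaled to controls: 0 for no effect and ±100 for the full control effect; nearly all actives have a fitted effect of over 65% in size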
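Measurement of cellular cAMP by homogeneous time-resolved fluorescence following a 30 min compound exposure at 37C. The PDE inhibitor […] was present throughout; the assay buffer was DPBS with 0.05% BSA and 0.005% Tween 20.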
Six1-Eya2 blk: qHTS Assay for Inhibitors of the Six1/Eya2 Interaction; Homeobox protein SIX1 (Homo sapiens) + Protein phosphatase EYA2 (Homo sapiens), …; AlphaScreen GST-Six1/His-Eya2 binding, biochemical; active compounds read low; control for the full effect not named in the record; activity change, % (concentration not given with the values); 360,000 compounds, 0.56% hits; in the data active = activity change below about -65%; inconclusive = about -30% to -65%; inactive = above about -30%; also: % is scaled to controls: 0 for no effect and ±100 for the full control effect
Target sequence (O00167 whole entry, looked up): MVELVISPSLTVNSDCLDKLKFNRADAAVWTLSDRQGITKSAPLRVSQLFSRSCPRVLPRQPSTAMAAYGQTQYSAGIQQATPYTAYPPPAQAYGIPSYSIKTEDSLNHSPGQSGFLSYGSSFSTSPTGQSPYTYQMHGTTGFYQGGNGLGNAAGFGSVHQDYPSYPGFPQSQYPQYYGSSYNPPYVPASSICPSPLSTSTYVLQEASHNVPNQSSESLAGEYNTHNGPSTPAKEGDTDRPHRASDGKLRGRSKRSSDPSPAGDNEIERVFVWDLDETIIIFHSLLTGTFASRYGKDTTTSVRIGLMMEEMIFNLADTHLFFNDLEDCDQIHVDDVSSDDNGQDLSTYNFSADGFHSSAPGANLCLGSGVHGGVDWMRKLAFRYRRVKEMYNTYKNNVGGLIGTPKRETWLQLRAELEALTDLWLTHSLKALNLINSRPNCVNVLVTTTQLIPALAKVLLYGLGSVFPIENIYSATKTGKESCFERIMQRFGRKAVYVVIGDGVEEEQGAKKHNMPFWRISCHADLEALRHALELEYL
Target sequence (Q15475 whole entry, looked up): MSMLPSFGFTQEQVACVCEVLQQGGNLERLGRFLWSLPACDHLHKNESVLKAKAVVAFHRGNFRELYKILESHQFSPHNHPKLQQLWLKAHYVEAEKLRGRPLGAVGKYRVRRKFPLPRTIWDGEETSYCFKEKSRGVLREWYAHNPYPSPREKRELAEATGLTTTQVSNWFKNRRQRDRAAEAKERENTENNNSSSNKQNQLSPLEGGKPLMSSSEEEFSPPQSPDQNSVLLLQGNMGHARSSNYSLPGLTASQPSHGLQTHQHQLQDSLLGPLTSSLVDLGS
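AlphaScreen with GST-Six1 and His-Eya2 (5X mix: 250 nM and 500 nM), glutathione donor and nickel acceptor beads; buffer 50 mM Tris pH 8.0, 300 mM NaCl, 1 mM TCEP; 1 h at 37 C in the dark.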
* = called active by the depositor; ? = inconclusive; . = no result given; [ ] = another dose, or the depositor's remark.

1	O=C(O)c1ccc(N=C2NC(=O)C(CO)(CO)S2)cc1
2	CC(O)(c1cccc(F)c1)c1nc(-c2cnc3ccccc3c2)cs1 (configuration not stated)
3	CC(C)(C)C1CCC2(CC1)C(Nc1cccc(C(F)(F)F)c1)=NC(=S)N2CC#N (configuration not stated)
4	CCOC(=O)[C@H]1[C@H]2COc3ccc(C)cc3[C@@H]2N2C(=O)c3cc(F)ccc3NC(=O)[C@@]12C
5	CC(C(=O)Nc1ccc2c(c1)OCCO2)N(c1ccccc1)S(C)(=O)=O (configuration not stated)
Compound,1,2,3,4,5
D2 potentiator,-3,65*,-11,-7,-8
D2 agonist,-1.9,148*,-5.2,-2.2,1.7
gsp agonist,-10%,.,9%,.,-2%
CtBP-E1A blk,7,-9,6,0,2
gsp antagonist,13%,.,4%,-2%,-18%
Six1-Eya2 blk,-1,1,2,-5,2

6	OC1(c2ccc(F)cc2)CSC(=Nc2cccnc2)N1Cc1ccco1 (configuration not stated)
7	COc1ccc(OCCCC(=O)NCC(C)C)cc1
8	CN1CCN(CCCNC(=O)c2cc3c(-c4ccc(Cl)cc4)nn(C)c3s2)CC1
9	Cc1c(CC(=O)O)c(=O)oc2cc(OCc3ccc(Br)cc3)ccc12
10	CCCc1cc(CN(C)C(=O)c2ccc(OC3CCN(C(C)=O)CC3)c(OC)c2)[nH]n1
Compound,6,7,8,9,10
D2 potentiator,-4,-8,-4,-3,-7
D2 agonist,1.0,-2.9,0.8,-2.8,-1.4
gsp agonist,0%[15.4 µM],-15%,-65%[inhibitor],15%[15.4 µM],-89%[inhibitor]
CtBP-E1A blk,-4,3,-16,-1,3
gsp antagonist,.,5%,8%,-23%,.
Six1-Eya2 blk,-7,0,-24,-26,1

11	O=C(Nc1cccc(S(=O)(=O)N2CCCC2)c1)c1ccc2ccccc2n1
12	Cc1noc(C)c1COc1ccc(C(=O)N2CCN(c3ccccc3F)CC2)cc1
13	CO/N=C(\Cn1ncc(NC2CCCCC2)c(Br)c1=O)c1ccc(Cl)cc1
14	Cc1ccc(-c2nc3ccsc3c(=O)o2)cc1
15	CCC(C)C(NC(N)=O)C(=O)Nc1ccc(C(=O)OC)cc1 (configuration not stated)
Compound,11,12,13,14,15
D2 potentiator,0,-3,9,0,-2
D2 agonist,3.3,2.4,5.5,-1.7,2.6
gsp agonist,?,-5%[15.4 µM],-5%,-10%,?
CtBP-E1A blk,-18,3,0,3,11
gsp antagonist,?,-3%,-21%,-7%,-5%
Six1-Eya2 blk,-15,-2,-11,-2,3

16	N#CC1=C(N)NC(SCc2ccc(F)cc2)=C(C#N)C12CCCCC2
17	COc1cccc(C(=O)C2CCCN(C(=O)CCC3=NNC(=O)CC3)C2)c1 (configuration not stated)
18	CSc1nc(Oc2ccc(=O)n(C)n2)nc(N(C)C)n1
19	O=C(Nc1ccccc1Cl)c1ccc2c(c1)N(Cc1ccc(F)cc1)C(=O)CS2=O (configuration not stated)
20	COC(=O)Nc1nc2c(s1)CCCC2
Compound,16,17,18,19,20
D2 potentiator,4,-9,1,7,-1
D2 agonist,-0.7,3.5,-1.6,0.4,0.6
gsp agonist,-48%[inhibitor],-50%[inhibitor],0%,0%,-25%
CtBP-E1A blk,-13,.,-6,-2,1
gsp antagonist,-11%,-8%,8%,-20%,4%
Six1-Eya2 blk,-19,14,5,1,0

An excerpt from above in order of molar mass, smallest number first.
20	COC(=O)Nc1nc2c(s1)CCCC2
15	CCC(C)C(NC(N)=O)C(=O)Nc1ccc(C(=O)OC)cc1 (configuration not stated)
16	N#CC1=C(N)NC(SCc2ccc(F)cc2)=C(C#N)C12CCCCC2
19	O=C(Nc1ccccc1Cl)c1ccc2c(c1)N(Cc1ccc(F)cc1)C(=O)CS2=O (configuration not stated)
13	CO/N=C(\Cn1ncc(NC2CCCCC2)c(Br)c1=O)c1ccc(Cl)cc1
Compound,20,15,16,19,13
D2 potentiator,-1,-2,4,7,9
D2 agonist,0.6,2.6,-0.7,0.4,5.5
gsp agonist,-25%,?,-48%[inhibitor],0%,-5%
CtBP-E1A blk,1,11,-13,-2,0
gsp antagonist,4%,-5%,-11%,-20%,-21%
Six1-Eya2 blk,0,3,-19,1,-11

Next results:
21	CCC(O)(c1ccc(OC)cc1)C(CN1CCOCC1)c1ccccc1 (configuration not stated)
22	COc1cc(/C=N/NC(=O)c2ccccc2)ccc1O
23	O=C(CN1C(=O)c2ccccc2S1(=O)=O)NCCSCc1ccco1
24	NC(=O)c1ccccc1NC(=O)COc1ccc2c(c1)OCO2
25	c1ccc2c(c1)nc(NCCN1CCOCC1)c1nncn12
Compound,21,22,23,24,25
D2 potentiator,-1,-8,10,3,-1
D2 agonist,-4.2,1.5,-0.8,13,-5.7
gsp agonist,-28%,22%,7%,-40%[inhibitor],23%
CtBP-E1A blk,9,-13,33,-1,0
gsp antagonist,-1%,2%,-3%,4%,7%
Six1-Eya2 blk,4,-1,20,-21,1

26	Cn1c(=O)[nH]c(=O)c2c1nc(N1CCOCC1)n2CCN1CCOCC1
27	Cc1ccc(NC(=O)CSc2nnc(-c3ccccn3)n2N)c(Br)c1
28	CCCCN(CCCC)CC(O)CN(c1cc([N+](=O)[O-])ccc1OC)S(=O)(=O)c1ccccc1 (configuration not stated)
29	CC(=O)Nc1ccc(Nc2cc(N3CCOCC3)c3nonc3c2[N+](=O)[O-])cc1
30	CC1=C(C)CC(C(=O)NNC(=O)c2ccccc2O)C(C(=O)O)C1 (configuration not stated)
Compound,26,27,28,29,30
D2 potentiator,-3,-1,-22,-3,-8
D2 agonist,-3.8,-0.9,-2.4,-0.1,-2.2
gsp agonist,4%,0%[15.4 µM],-15%,?,-5%
CtBP-E1A blk,7,?,-8,-6,-1
gsp antagonist,-6%,8%,3%,-27%,9%
Six1-Eya2 blk,8,?,-15,5,-10

31	Cc1cccc(NC(=S)NC(=O)c2ccc(-c3ccccc3)cc2)n1
32	O=C1Nc2ccccc2N(O)N1c1cc(-c2ccccc2)[nH]n1
33	CC(C)CN(C(=O)COC(=O)c1ccc(C#N)cc1)C1CCS(=O)(=O)C1 (configuration not stated)
34	C/C=C/c1cc(CN2CCN(c3ccc(OC)cc3)CC2)c(O)c(OC)c1
35	COc1ccccc1CNC(=O)c1ccc(C)s1
Compound,31,32,33,34,35
D2 potentiator,-3,0,-3,-17,-3
D2 agonist,-4.0,-0.1,4.4,-1.6,-4.1
gsp agonist,?,-5%,6%,17%[15.4 µM],?
CtBP-E1A blk,-4,3,6,-29,4
gsp antagonist,-3%,14%,10%,-12%,-3%
Six1-Eya2 blk,-6,-2,2,?,5

36	CC1CN(S(=O)(=O)Cc2ccccc2)CC(C)O1 (configuration not stated)
37	C=CCN(CC=C)C(=S)NC(=O)c1ccc([N+](=O)[O-])cc1
38	O=C(/C=C/c1cccs1)NC1CCS(=O)(=O)C1 (configuration not stated)
39	CCc1cc2c(=O)n(-c3ccccc3)c(SCC(N)=O)nc2s1
40	COC(=O)C1C(O)=C(C(C)=Nc2cccc3ccccc23)C(=O)CC1(C)C (configuration not stated)
Compound,36,37,38,39,40
D2 potentiator,9,2,-1,-3,0
D2 agonist,-1.5,-5.6,1.8,-3.7,0.9
gsp agonist,6%,?,-5%[15.4 µM],6%,?
CtBP-E1A blk,10,7,-1,-12,.
gsp antagonist,4%,-4%,.,7.1µM*,-6%
Six1-Eya2 blk,3,2,-3,0,-4

41	COc1ccc(Cl)cc1C=CC=NNC(=O)c1ccncc1
42	O=S(=O)(c1ccc(F)cc1)n1ccc(-c2cccc(OCc3ccc(Cl)cc3Cl)c2)n1
43	COc1ccc(C(C(=O)NCC2CCCO2)N(Cc2ccc(F)cc2)C(=O)CNC(=O)c2ccco2)cc1OC (configuration not stated)
44	Cc1nnsc1C(=O)NNC(=O)c1cccc2ccccc12
45	COc1cc(C(=O)N2CCN(c3ncnc4sc(C)c(C)c34)CC2)cc(OC)c1OC
Compound,41,42,43,44,45
D2 potentiator,-16,-16,-5,-4,11
D2 agonist,-5.6,-0.7,-3.4,-1.7,2.8
gsp agonist,-11%,-68%[inhibitor],25%,-3%,-57%[inhibitor]
CtBP-E1A blk,13,5,-1,-2,0
gsp antagonist,-11%,0%,2%,-3%,?
Six1-Eya2 blk,-4,13,-4,0,2

46	O=C(CCN1C(=O)c2ccccc2C1=O)CN1CCOCC1
47	Cc1cc2c(cc1S(=O)(=O)Nc1cccc(C)c1C)n(C)c(=O)c(=O)n2C
48	Cc1cc(C)cc(NC(=S)NCCCO)c1
49	Cc1ccc(NC(=S)Nc2ccc(F)cc2)c(C)c1
50	COc1cccc2cc(C(C)OC(=O)Nc3ccc(C)cc3)oc12 (configuration not stated)
Compound,46,47,48,49,50
D2 potentiator,-4,1,-10,-4,-21
D2 agonist,-3.4,-2.5,-0.3,-7.2,2.8
gsp agonist,15%[15.4 µM],7%,-18%,9%[15.4 µM],-35%[inhibitor]
CtBP-E1A blk,1,2,7,-8,6
gsp antagonist,-4%,-5%,10%,2%,0%
Six1-Eya2 blk,5,-1,10,4,5

51	O=[N+]([O-])c1ccc(Cl)cc1N1CCOCC1
52	O=C(CCCN1C(=O)c2ccccc2C1=O)Nc1ccc2c(c1)OCCO2
53	CC1(C)OC2C(CO)OC(n3cnc4c(=S)nc[nH]c43)C2O1 (configuration not stated)
54	Cc1ccc(-n2nc(C)c(NC(=O)CCl)c2C)cc1C
55	Cc1ccc(-n2nc(C(=O)NCc3ccc(C)o3)c3c4ccccc4n(C)c3c2=O)cc1
Compound,51,52,53,54,55
D2 potentiator,4,-2,-15,-7,-6
D2 agonist,1.5,-16,-0.7,-0.7,0.2
gsp agonist,13%[15.4 µM],8%[15.4 µM],18%[15.4 µM],-15%,13%
CtBP-E1A blk,7,-1,4,4,-1
gsp antagonist,.,0%,-1%,8%,-17%
Six1-Eya2 blk,-2,-2,-4,-2,-3

56	CCCCn1c(N)c(N(CC(C)C)C(=O)CSc2nnc(-c3ccc(Cl)cc3)o2)c(=O)[nH]c1=O
57	COc1cccc(C(=O)NNC(=O)Cc2ccc(Cl)cc2)c1
58	CC1Cc2ccccc2N1C(=O)CSc1nncs1 (configuration not stated)
59	CC(=O)N1CC(C)Sc2ccc(S(=O)(=O)NCc3ccccc3Cl)cc21 (configuration not stated)
Compound,56,57,58,59
D2 potentiator,-4,0,-15,-16
D2 agonist,-0.8,-0.9,-0.2,-3.5
gsp agonist,-13%[15.4 µM],-43%,5%,25%
CtBP-E1A blk,1,7,0,4
gsp antagonist,12%,8%,17%,3%
Six1-Eya2 blk,3,7,-1,2
